Screens: PubChem, National Center for Advancing Translational Sciences (NCATS)
CtBP-E1A blk = inhibitors of CtBP/E1A interaction. AlphaScreen GST-E1A/His-CtBP binding, 1536-well; hits give low values; control for the full effect not named in the record. activity change, % (no concentration beside the values). actives 0.49% (n = 340,000); in the data active means activity change below about -65%; inconclusive means about -30% to -65%; inactive means above about -30%; also: % is scaled to controls: 0 for no effect and ±100 for the full control effect; compound concentration not given in the record
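Steps: dispense buffer (Tris pH 8.0, NaCl 300 mM, TCEP 1 mM, BSA, Tween 20); add 5X protein mix (GST-E1A, His-CtBP, 125 nM each); pin 23 nL compound; 2 h at 37 °C, dark; add 5X beads (50 ug/mL); 1 h; read.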
TRPV1 potentiator = human TRPV1 potentiation. potentiation, % at 8.33 µM. TRPV1-expressing cells, Fluo-8 calcium influx, capsaicin EC20 potentiation; host cell line not named in the record; control for the full effect not named in the record. actives 0.02% (n = 320,000); active means potentiation above 80%; inconclusive means 30% to 80%; inactive means below 30%; also: 0% is about no effect
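TRPV1-expressing cells were cultured overnight at 35.5C and loaded with Fluo-8 calcium dye for 40 to 90 min at room temperature. After a 10 s baseline, compound was added and calcium influx was read kinetically for 3 min (ex 480/em 520 nm).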
D2 PAM = positive allosteric modulators of human D2 dopamine receptor | DiscoveRx D2 beta-arrestin cells, luminescence, 90 min; 100% = 57 uM dopamine signal | potentiation, % (no concentration beside the values) | actives 0.23% (n = 360,000) | AID 624464; active = potentiation of 50% or more; inconclusive = 30% to 50%; inactive = 30% or less;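 also: compound concentration not given in the record; tested on top of an EC20 dose of dopamine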
Target sequence (P14416 whole entry, looked up): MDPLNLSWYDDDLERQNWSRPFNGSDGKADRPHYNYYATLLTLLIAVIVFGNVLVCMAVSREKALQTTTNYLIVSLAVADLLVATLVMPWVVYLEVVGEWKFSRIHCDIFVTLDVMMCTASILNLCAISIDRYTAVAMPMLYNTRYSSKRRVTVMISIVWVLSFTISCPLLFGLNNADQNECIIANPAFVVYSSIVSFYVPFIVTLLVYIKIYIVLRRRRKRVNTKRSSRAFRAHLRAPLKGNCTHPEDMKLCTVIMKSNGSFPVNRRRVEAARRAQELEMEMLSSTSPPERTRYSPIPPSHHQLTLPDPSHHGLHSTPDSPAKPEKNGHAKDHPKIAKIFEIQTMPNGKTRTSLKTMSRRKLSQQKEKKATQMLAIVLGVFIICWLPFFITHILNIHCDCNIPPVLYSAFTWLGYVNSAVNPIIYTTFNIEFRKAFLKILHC
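D2 cells co-treated with compound plus 50 nM dopamine (EC20) for 90 min at 37 deg C to detect potentiation. Beta-arrestin recruitment was read as enzyme-fragment luminescence after 1 h at ambient temperature. Full response was set by 57 uM dopamine.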
TRPML1 agonist = human mucolipin-1 channel agonism. Q9GZU1. TRPML1-expressing cells, Ca2+ dye fluorescence, FDSS; host cell line not named in the record; reference of the full effect not given here. activation, % (concentration not given with the values). actives 0.12% (n = 410,000); in the data active = activation above about 50%; inconclusive = about 30% to 50%; inactive = below about 30%; also: 0% is about no effect; the text of the record puts the active cut at 80%
Target sequence (Q9GZU1 whole entry, looked up): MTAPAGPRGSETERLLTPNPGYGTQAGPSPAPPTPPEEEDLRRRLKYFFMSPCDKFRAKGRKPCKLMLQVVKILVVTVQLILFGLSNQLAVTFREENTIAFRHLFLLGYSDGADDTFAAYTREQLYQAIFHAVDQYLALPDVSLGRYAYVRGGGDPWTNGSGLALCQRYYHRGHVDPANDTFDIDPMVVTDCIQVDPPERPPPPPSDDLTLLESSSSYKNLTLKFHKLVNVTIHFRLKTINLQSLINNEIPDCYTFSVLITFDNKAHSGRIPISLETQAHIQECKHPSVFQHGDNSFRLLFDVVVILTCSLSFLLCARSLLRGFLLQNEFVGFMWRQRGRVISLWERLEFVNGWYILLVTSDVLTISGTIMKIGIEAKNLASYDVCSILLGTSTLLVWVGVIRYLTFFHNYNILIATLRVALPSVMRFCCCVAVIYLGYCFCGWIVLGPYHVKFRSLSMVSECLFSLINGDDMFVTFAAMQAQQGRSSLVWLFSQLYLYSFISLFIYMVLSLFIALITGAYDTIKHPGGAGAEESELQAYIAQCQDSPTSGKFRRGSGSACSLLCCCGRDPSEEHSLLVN
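Tetracycline-induced TRPML1-DL cells are seeded and incubated overnight before loading with a no-wash Ca2+ dye and quencher. Agonist activity is taken from the 110 s fluorescence read following compound pin-transfer on an FDSS, before EC80 54-4 challenge.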
Six1-Eya2 blk = blocks human Six1 binding to Eya2; Q15475+O00167; actives 0.56% (n = 360,000); activity change, % (concentration not given with the values); AlphaScreen GST-Six1/His-Eya2 binding, biochemical; hits give low values; control for the full effect not named in the record; in the data active = activity change below about -65%; inconclusive = about -30% to -65%; inactive = above about -30%; also: % is scaled to controls: 0 for no effect and ±100 for the full control effect
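AlphaScreen luminescence read after one hour at 37 °C in darkness. Pin-transferred compounds met GST-Six1 and His-Eya2 protein (5X stock 250 nM/500 nM) plus glutathione donor and Ni-chelate acceptor beads (5X, 50 ug/mL).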
TRPML1 blocker = inhibitors of human TRPML1 channel; Q9GZU1; TRPML1-inducible cells, Ca2+ dye fluorescence, FDSS; hits give low values; inhibition of EC80 agonist-evoked calcium signal; activity change, negative = inhibition, % (no concentration beside the values); actives 0.02% (n = 390,000); AID 624415; in the data active means activity change below about -50%; inconclusive means about -30% to -50%; inactive means above about -30%;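 also: stimulus is agonist 54-4 at its EC80 concentration; % is scaled to controls: 0 for no effect and ±100 for the full control effect; compound concentration not given in the record; the text of the record puts the active cut at -80%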
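Tet-induced TRPML1-DL cells loaded with Ca8 no-wash calcium dye were read kinetically on FDSS. Compound addition was followed by EC80 agonist 54-4 (4 uM final); inhibition was read over 110 s.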
Active calls of the source: *; ? = inconclusive; · = no result given; & = joins results of further samples.

The first four compounds (preview)
cpd	Molecule	CtBP-E1A blk	D2 PAM	Six1-Eya2 blk	TRPML1 blocker	TRPML1 agonist	TRPV1 potentiator
1	CCOC(=O)c1sc(NC(=O)c2ccccc2F)c(C(N)=O)c1C	-1	2	11	23	2.3	4
2	O=C(CNC(=O)N1CC(=O)Nc2ccccc21)Nc1ccc(F)c(Cl)c1	-28	-18	-12	-10	-1.0	0
3	Cc1ccc2nc(-c3ccc(-c4cccc(Cl)c4)cc3)c(NCc3ccccc3)n2c1	-9	-28	0	-14	-0.3	25
4	COC(=O)c1ccc(CSc2nnc(Nc3ccccc3OC)s2)o1	8	-16	-7	3	1.9	?

The listing, from the start:
cpd	Molecule	CtBP-E1A blk	D2 PAM	Six1-Eya2 blk	TRPML1 blocker	TRPML1 agonist	TRPV1 potentiator
1	CCOC(=O)c1sc(NC(=O)c2ccccc2F)c(C(N)=O)c1C	-1	2	11	23	2.3	4
2	O=C(CNC(=O)N1CC(=O)Nc2ccccc21)Nc1ccc(F)c(Cl)c1	-28	-18	-12	-10	-1.0	0
3	Cc1ccc2nc(-c3ccc(-c4cccc(Cl)c4)cc3)c(NCc3ccccc3)n2c1	-9	-28	0	-14	-0.3	25
4	COC(=O)c1ccc(CSc2nnc(Nc3ccccc3OC)s2)o1	8	-16	-7	3	1.9	?
5	COc1cc(/C(C)=N/NC(=O)CSc2nncn2C)ccc1OCc1ccccc1Cl	10	-18	-2	-5	-0.4	-3
6	CCC[C@@H](CN1CCC[C@H]1CN1C(N)=NC[C@H]1CC(C)C)N1C[C@@H](Cc2ccccc2)N(CCc2ccc(Cl)c(Cl)c2)C1=N	-19	·	13	0	0.3	·
7	C=CCn1c(C)cc(C)c(C#N)c1=O	2	-7	7	26	-0.5	-15
8	O=C1c2ccccc2C(=O)N1CCCc1nc2ccccc2c(=O)n1CCCn1ccnc1	-7	-5	-1	0	1.9	-2
9	O=C(Nc1ccccc1C(=O)Nc1ccc(Br)cn1)c1ccccc1Cl	-4	-3	1	25	5.7	-3
10	COc1cc(C(C)=O)ccc1OCC(=O)NCc1ccccc1CN1CCCC1	0	-16	0	2	-0.1	·
11	CC(C)CCNCC(O)CON=C1c2ccccc2-c2ccccc21 (stereo unspecified)	·	27	2	2	2.5	-6
12	CCOc1ccc(OCCC(=O)N(CC)CC(=O)Nc2c(F)cccc2F)cc1	3	7	-2	-12	1.6	-3
13	COc1ccc(-n2c(Cc3cc(=O)[nH]c(=O)[nH]3)nnc2SCC(=O)N2CCC(C)CC2)cc1	4	3	1	44	0.0	-13
14	CCCCS(=O)(=O)N1CCCC(C(=O)NCCc2ccccc2)C1 (stereo unspecified)	·	7	5	·	·	-1
15	CC(=O)NC12CC3CC(C1)CC(C(=O)N(C)Cc1cccc(Cl)c1Cl)(C3)C2	2	1	3	-3	0.9	-2
16	C=Cc1ccc(Cn2c(C)c(C(=O)NCc3cccc(C)c3)sc2=O)cc1	0	-3	0	·	4.1	·
17	CN(C)Cc1nc2ccccc2c(=O)n1CC#N	0	-2	1	-13	0.4	1
18	CC(C)C(C(=O)NCC1CCCO1)N(Cc1ccccc1)C(=O)CNS(=O)(=O)c1ccccc1 (stereo unspecified)	3	-5	-1	-7	-0.5	-5
19	O=C(CCNC(=O)c1ccc(Br)cc1)NCC1COc2ccccc2O1 (stereo unspecified)	0	-12	28	-12	0.3	-2
20	COc1ccc(C(=O)Nc2ccc3c(c2)C(=O)c2ccccc2C3=O)cc1OC	-8	4	-15	11	0.5	14
21	COc1ccccc1Oc1ccc(N2CC(C(=O)OCC(=O)c3ccccc3)CC2=O)cc1 (stereo unspecified)	7	-11	2	-20	0.3	-1
22	CCCOC(=O)Cc1n[nH]c(=O)[nH]c1=O	3	13	-1	25	-0.9	-3
23	O=C(C1=NN[C@@H]2C(=O)N(c3cccc(C(F)(F)F)c3)C(=O)[C@H]12)C(c1ccccc1)c1ccccc1	-1	-16	-21	6	0.8	24
24	CCC(=O)NC(=S)Nc1ccc(NC(=O)c2ccco2)c(OC)c1	31	10	26	-11	0.4	3
25	CC(C)(C)NC(=O)N1CCN(c2nc(-c3ccccc3)ns2)CC1	-22	-3	-10	-8	0.1	-22

A different layout for 3 compounds above.
7) C=CCn1c(C)cc(C)c(C#N)c1=O
  CtBP-E1A blk = 2 | D2 PAM = -7 | Six1-Eya2 blk = 7 | TRPML1 blocker = 26 | TRPML1 agonist = -0.5 | TRPV1 potentiator = -15
8) O=C1c2ccccc2C(=O)N1CCCc1nc2ccccc2c(=O)n1CCCn1ccnc1
  CtBP-E1A blk = -7 | D2 PAM = -5 | Six1-Eya2 blk = -1 | TRPML1 blocker = 0 | TRPML1 agonist = 1.9 | TRPV1 potentiator = -2
9) O=C(Nc1ccccc1C(=O)Nc1ccc(Br)cn1)c1ccccc1Cl
  CtBP-E1A blk = -4 | D2 PAM = -3 | Six1-Eya2 blk = 1 | TRPML1 blocker = 25 | TRPML1 agonist = 5.7 | TRPV1 potentiator = -3

(continued)
cpd	Molecule	CtBP-E1A blk	D2 PAM	Six1-Eya2 blk	TRPML1 blocker	TRPML1 agonist	TRPV1 potentiator
26	Cc1nn(Cc2ccc(F)cc2)c2sc(C(=O)Nc3ccccc3N3CCOCC3)cc12	-4	9	4	39	0.4	3
27	O=C(CCCOc1ccc(Cl)cc1)Nc1ccc(N2CCOCC2)cc1	·	-18	-16	-12	-0.4	-15
28	COc1cc(Br)c(C(C)NC(=O)c2ccccc2)cc1OC (stereo unspecified)	41	0	26	2	-0.2	-20
29	COC(=O)c1c(-c2c(Cl)cccc2Cl)noc1NC(=O)N(C)C	3	-3	-3	-13	1.7	-1
30	CCCc1cc(C(=O)NNC(=S)NCC2CCCO2)cs1 (stereo unspecified)	-1	-10	3	4	0.6	13
31	Nc1ccc(S(=O)(=O)N2CCCC2)cc1	3	-9	4	37	0.3	6
32	N#Cc1ccccc1NC(=O)CNc1cc(S(=O)(=O)N2CCOCC2)ccc1NCC1CCCO1 (stereo unspecified)	-20	10	-8	3	-0.2	-8
33	COc1ccc(S(=O)(=O)N2CCN(c3ccccc3OC)CC2)cc1	·	-23	16	-10&8	1.0&-0.6	-5
34	COc1ccccc1Nc1nc(C)cs1	-2&-3	-11&4	-2&4	5&9	0.8&2.1	1&6
35	Cc1cn(CC(=O)NCCCc2ccccc2)c(=O)[nH]c1=O	-14	-9	7	-1	0.0	·
36	CCn1c(SCC(=O)Nc2nc(C)cs2)nnc1-c1ccncc1	3	2	7	7	0.8	-2
37	CCN(CC(=O)Nc1c(F)cccc1F)C(=O)CCNS(=O)(=O)c1ccc(C)c(C)c1	10	0	-1	-10	-0.7	-7
38	CN1OC[C@@H]2CN[C@H](c3cccc(-c4ccc(C#N)cc4)c3)C[C@@H]21	0	·	-7	18	0.0	·
39	Cc1cc(OC(=O)N2CCCCC2)cc(C)c1Cl	16	-16	13	10	-0.2	-14
40	CC(NC(=O)C1CCN(c2nnc(N3CCCC3=O)s2)CC1)c1ccccc1 (stereo unspecified)	-4	-1	-5	9	-0.4	-4
41	CC(=O)c1nn(-c2cccc(Br)c2)cc1C(=O)c1ccccc1	4	-1	5	33	5.3	-21
42	COc1ccc(-c2nc(-c3ccccn3)no2)cc1	3	-2	0	11	6.7	-15
43	CCN(CCCNC(=O)COc1cc(=O)n(C)c2ccccc12)c1ccccc1	-14	-23	-14	-16	0.9	·
44	CCOC(=O)NC1c2ccccc2Oc2ccccc21	12	-5	4	-1	2.4	-3
45	O=C(NC1CCS(=O)(=O)C1)c1cccc(S(=O)(=O)N2CCCCC2)c1 (stereo unspecified)	6	-5	0	29	0.6	-1
46	N#C/C(=C\C=C\c1ccccc1)c1nc(-c2ccc(Cl)cc2)cs1	·	-14	1	11	-0.6	-8
47	O=[N+]([O-])c1cccc(/C=N/Nc2nc(N3CCOCC3)nc(N3CCOCC3)n2)c1	11	2	13	13	-0.1	-5
48	Cc1c(NS(=O)(=O)c2cccc(C(=O)N3CCC(C(N)=O)CC3)c2)c(=O)n(-c2ccccc2)n1C	-4	-3	-3	-12	2.4	·
49	O=C(NCCC1=CCCCC1)C1CCN(S(=O)(=O)N2CCOCC2)CC1	48	-5	0	-16	0.5	-5
50	Cc1ccc(Sc2ncnc3onc(C)c23)c(C)c1	·	4	-3	3	2.1	-3

(list continues)
cpd	Molecule	CtBP-E1A blk	D2 PAM	Six1-Eya2 blk	TRPML1 blocker	TRPML1 agonist	TRPV1 potentiator
51	COC(=O)[C@H](CCSC)NC(=O)Nc1ccc(C(C)C)cc1	2	-4	-2	3	0.9	-16
52	Cc1c(NC(=O)/C=C/c2cn(-c3ccccc3)nc2-c2ccc(F)cc2)c(=O)n(-c2ccccc2)n1C	10	1	0	·	·	13
53	CCOC(=O)c1c(C)[nH]c(N=Nc2ccc(C)cc2C)c1C	-15	2	-11	4	2.2	-15
54	Cc1noc(C)c1COc1ccc(C(=O)N2CCC(C(N)=O)CC2)cc1	0	-3	5	-20	-0.1	·
55	O=[N+]([O-])c1ccccc1/C=C/C=N/n1c(-c2ccc(Cl)cc2)n[nH]c1=S	-10	11	-12	1	1.3	-18
56	O=C(COc1ccc(C(=O)Nc2ccc(Cl)cc2)cc1)NCc1ccccc1	-7	24	0	-12	-0.3	-5
57	C=C1C(=O)N(C)CCC1C(CC)C(=O)OC (stereo unspecified)	5	-8	8	10	0.2	·
58	O=C(Nc1ccc2c(c1)OCCO2)NC1(C(F)(F)F)Oc2ccccc2O1	-3	-3	6	15	-0.6	-6
59	COc1ccc(NC(=O)CN(C)C(=O)c2cc(C3CC3)nn2-c2ccccc2)cc1	-2	-1	-4	3	1.0	15
60	CCN(CC)CCNc1nc(-c2ccc(OC(F)F)cc2)c(C)s1	-7	6	-13	27	1.5	-11
61	O=C(O)CSCC(=O)NCc1c(Cl)cccc1Oc1ccccc1	-7	-7	6	-3	1.1	-2
62	CCc1nc2c(OCc3ccc(C(F)(F)F)cc3)cccn2c1N(C)C(=O)C(C)C	1	-5	7	·	5.1	·
63	CN(C)CCCNCCCNC(=O)/C=N/O	11	4	1	-4	0.9	4
64	O=C(OCc1ccccc1)N1CCC2CC1c1c(-c3ccc(C(F)(F)F)cc3)cccc12 (stereo unspecified)	1	·	6	-4	-0.9	·
65	O=C(NC(c1ccccc1)c1ccccc1)N1CCOCC1	-12	10	3	19	-0.2	-2
66	COc1ccc(NC(=O)CSc2nnc(-c3ccccc3C)n2N)cc1OC	2	7	0	10	-0.4	1
67	COc1ccc(OCc2nnc(SCC(=O)N3CCCCC3)o2)cc1	4	-3	-9	2	0.2	-6
68	COc1cc(C#Cc2c(-c3cncn3C)n(C)c3ccc(-c4cnc(OC)nc4)cc23)cc(OC)c1	-3	-20	-14	27	-0.6	7
69	O=C(NCc1cccnc1)Nc1cccc(Cl)c1Cl	-14	-37	-6	4	0.9	-19
70	O=C(NCCCN1CCOCC1)/C(=C/c1ccco1)NC(=O)c1ccccc1	10	-2	-9	15	-0.8	-10
